High-throughput results as filed in PubChem BioAssay.
Bead autofluor – counter-screen for toxin protease inhibitors: compound fluorescence; compound autofluorescence counterscreen, microsphere flow cytometry; active compounds read high; fluorescence intensity (concentration not given with the values); hit rate 3.1% among 360,000;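 active means at least 3 SD above the mean of all compounds, about 16000 in these data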;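 further: 100 nL of 1 mM stock went into each well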
RN4220 kill – S. aureus RN4220 growth inhibition; OD600, 16 h; inhibition, % (no concentration beside the values); AID 1259311; hit rate 0.33% among 330,000;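 active means z-score of -3 or lower and OD600 up to 0.18 on both plates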;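 further: plate controls were untreated cells for no effect and reference antibiotic for full effect; stock transfer was 100 nL into about 80 µL; one replicate is shown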
PrP UTR inh – suppresses PrP 5' UTR mRNA reporter expression | cell-based PrP 5' UTR mRNA reporter, plate reader | inhibition, % (concentration not given with the values) | hit rate 0.35% among 340,000 | AID 488862;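 active means every replicate at 50% or more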;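 further: 0 = median of the neutral control wells; tested in H4 reporter cells; numbers are from one replicate; inactives centre near -14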
BJeLR viability – BJeLR cell viability loss | BJeLR (HRASV12) viability, CellTiter-Glo ATP luminescence, 48 h; reference of the scale not given here | inhibition, % (test concentration not listed) | hit rate 0.17% among 300,000 | AID 1554;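 active means replicate mean above 50%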;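 further: 50 nL library stock added to about 25 µL; numbers are from one replicate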
Sa ugtP lethal – kills S. aureus RN4220 lacking UgtP. AID 1259309. growth inhibition, % (concentration not given with the values). hit rate 0.54% among 330,000. S. aureus RN4220 ugtP deletion, OD600 growth, 16 h; some inactives read as strong as hits;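 active means z-score under -3 and OD600 up to 0.15 on both plates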;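 further: plate controls were untreated wells for no effect and antibiotic for full effect; wells of about 80 µL received 100 nL stock; the first replicate is given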
Mtb hypoxia rep – inhibitors of hypoxia-regulated fluorescent reporter in Mycobacterium tuberculosis; M. tuberculosis hypoxia-regulated fluorescent reporter, fluorescence; hit rate 0.1% among 300,000; fluorescence inhibition, % (no concentration beside the values); AID 1159583;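 active means 35 to 45% if threefold the growth effect, above 45% if 1.5-fold the growth effect; inactive means the rest, general growth blockers included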;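 further: wells of about 50 µL received 100 nL stock; 0% = vehicle wells and 100% = reference inhibitor wells; whole bacteria with a GFP reporter of the hypoxia response; strong numbers were not always called active; many hits fall short of the cut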
Mtb hypoxia rep growth – also measured in Mtb hypoxia rep; calls as there; growth inhibition, %; measured here: M. tuberculosis growth (absorbance);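 0% = vehicle and 100% = reference antibiotic; read after six days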
The depositor's hits bear a star; . = no result given; & = joins results of further samples.

Every second line gives: Bead autofluor	RN4220 kill	PrP UTR inh	BJeLR viability	Sa ugtP lethal	Mtb hypoxia rep	Mtb hypoxia rep growth
- COC(=O)c1cccc(NC(=O)c2cnn(C)c2)c1
    5610	-2.1	-21	-2	13	6	2
- Cc1cc(C(=O)NNC(=O)c2ccc(Cl)cc2)no1
    .	0.5	-10	2	5	8	11
- CC(=O)N(Cc1cc(=O)[nH]c2ccccc12)c1cccc(C)c1
    3244	-0.9	-26	-5	-18	17	9
- CNC(=S)NCCc1ccccc1
    6277	5.4	-26	0	12	6	-5
- CN(C)N=C/C=C1\CCC/C(=C/c2cccs2)C1=O
    .	2.8	.	.	3	5	-10
- CC(Oc1ccccc1)C(=O)N1CCc2ccccc2C1 (stereo not drawn)
    4007	2.4	-26	-5	2	4	17
- O=C(CNCc1ccc(Cl)cc1)Nc1ccc(C(=O)N2CCCCC2)cc1
    3873	-0.1	-10	1	3	-1	2
- CCCn1c(/C=C/c2ccccc2)nc2ccccc21
    11012	8.9	-67	0	-12	19	20
- O=C(CNS(=O)(=O)c1ccccc1)OCC(=O)c1ccc(F)cc1
    4643	-2.4	-8	-9	-3	-8	-6
- CCOc1ccc(Cn2c(=O)sc3ccccc32)cc1
    5189	6.8	-8	1	16	3	2
- COc1ccc(CCNC(=O)CCCCCN2C(=O)c3ccccc3C2=O)cc1OC
    2124	10	-14	1	-3	2	4
- CCCCOc1ccc(C(=O)OCC(=O)NC2CCCC2)cc1
    3817	1.6	-13	1	-1	16	9
- O=C(NCc1ccco1)c1ccc(S(=O)(=O)N2CCCCCC2)cc1
    3490	2.2	-28	.	3	-2	2
- Cc1cc(C(=O)N2CCN(C(c3ccccc3)c3ccccc3)CC2)no1
    23268*	-1.4	-13	0	14	3	12
- Cc1ccc(OCC(=O)Nc2cccc3ccccc23)c([N+](=O)[O-])n1
    4824	2.3	-1	.	-4	2	0
- CCN(CC)c1ccc(C=NNC(=O)c2cccc(N3CCCC3=O)c2)cc1
    .	1.1	.	.	-3	6	10
- CC1(C)CC(=O)C(CCCN2C(=O)c3ccccc3C2=O)C(=O)C1
    10941	3.8	-9	14	-2	3	3
- COC(=O)C1=C(c2ccc3ccccc3c2)CC2CCC1N2C(=O)NCC1CC1 (stereo not drawn)
    .	6.2	.	.	7	11	0
- NS(=O)(=O)c1ccc(N=Cc2c(O)n(-c3nccs3)c(=O)c3ccccc23)cc1
    3489	3.5	-16	-4	15	13	13
- COc1ccc(OC)c(C(C)NC(=S)Nc2ccc(S(=O)(=O)Nc3ncccn3)cc2)c1 (stereo not drawn)
    5675	0.9	1	5	7	9	7
- COc1ccc(OC)c(NC(=O)CSc2nc(=O)n(CCN3CCOCC3)c3c2CCCC3)c1
    6133	0.2	-11	-6	3	0	13
- O=C(C1CCCN(Cc2ccccc2F)C1)N1CCc2ccccc2C1 (stereo not drawn)
    3957	.	-31	7	.	.	.
- C=CCNc1nc(C(=O)OC(C)C(=O)c2ccc(C)cc2)cs1 (stereo not drawn)
    .	2.1	-15	.	2	5	7
- C/C(N)=C(/C#N)C(=O)CSc1nc(-c2ccccc2)c(-c2ccccc2)o1
    3493	-4.9	-16	2	30	17	11
- CC[C@]12c3[nH]c4cc(CCC(=O)N(C)C)ccc4c3CCN1C(=O)[C@@H](CC(=O)NCCCN(C)C)C[C@@H]2C(=O)N1CCN(C(=O)c2ccco2)CC1
    3092	-0.6	-12	.	-2	-2	-1
- Cc1cc(C(=O)OCC(=O)NC(=O)c2cccn2C)c2ccccc2n1
    4400	.	-14	-6	.	.	.
- CC(=NNC(=O)c1cccc(S(=O)(=O)N2CCCC2)c1)c1ccccc1F
    .	7.2	.	.	6	7	3
- COc1ccc(N2CCN(C(c3nnnn3CCc3ccccc3)C(C)C)CC2)cc1 (stereo not drawn)
    4057	8.4	-33	-9	6	.	.
- CC(Oc1cccc(Cl)c1)C(=O)NCCCCc1ccccc1 (stereo not drawn)
    2569	19	-7	-5	-2	10	-9
- CC(=O)Nc1cccc(C(=O)NN=Cc2cccc(C)n2)c1
    .	-1.7	.	.	14	-3	1
- CCCc1nnc(NC(=O)CCC(=O)N2CCCCCC2)s1
    4720	2.9	-15	4	5	.	.
- CN(CCOC(=O)c1ccc2c(c1)OCCO2)C(C)(C)C
    2284	0.1	-12	-2	5	.	.
- CC(C)CN(c1ccccc1)S(=O)(=O)c1nnc(NC(=O)c2ccco2)s1
    4452	20	-1	11	8	-10	-12
- NC(=O)C1(Nc2ccc(Br)cc2)CCCC1
    2946	-0.4	-18	.	7	17	4
- CN=C(Nc1cc(C)nn1-c1ccccc1)c1ccc(F)cc1
    7981	1.0	-10	-5	6	9	2
- COc1ccc(CCNC(=O)C(=O)NCC2OCCN2S(=O)(=O)c2ccc(Br)cc2)cc1OC (stereo not drawn)
    1937	3.1	-19	5	2	4	9
- FC(F)(F)c1ccc(N2CCOCC2)c(NC2=NCCCCC2)c1
    4033	5.0	0	-8	-8	2	4
- O=C(Cn1cc2c(n1)CCCCC2)NC1CCCCCC1
    4321	3.6	-18	1	19	.	.
- Cc1cc(C(=O)CSc2nc(N)cc(=O)[nH]2)c(C)n1CCc1ccc(Cl)cc1
    3620	7.9	-14	8	-1	.	.
- Cc1ccc(CNC(=O)CSc2nnnn2C)cc1
    9637	-1.0	-17	8	0	3	6
- CN(C)c1ccc(C(=O)OCC(=O)Nc2ccc(S(N)(=O)=O)cc2)cc1
    2821	-12	-14	-3	-5	13	5
- CCC(CC)C(=O)Nc1nnc(-c2cccs2)s1
    4867	13	-47	23	1	.	.
- Cc1ccc2c(c1)Oc1ccc(NC(=O)CCCl)cc1C(=O)N2
    1903	5.4	-13	-6	-5	7	11
- Cc1ccc(CNC(=O)c2ccc(C#CC(C)(C)O)s2)cc1
    22677*	1.1	7	1	-4	4	9
- Cc1ccc(Nc2nc(NCCO)nc(N3CCCC3)n2)cc1
    4075	4.5	-1	-1	4	-1	10
- COc1cc(C)nc(N2CCC(C(N)=O)CC2)n1
    9560	3.3	-21	-6	3	6	15
- CC(=O)c1cccc(NC(=S)N2CCN(S(C)(=O)=O)CC2)c1
    5469	1.0	-18	7	0	0	-4
- O=C(Nn1cnc2ccccc2c1=O)c1ccccc1F
    3676	0.7	-1	-2	4	1	-2
- COc1ccc(-c2cc(C(=O)N3CCN(C(c4ccccc4)c4ccccc4)CC3)no2)cc1OC
    12463	-1.7	-7	-1	2	0	-2
- Cc1ccc(C(=O)OC2OC(=O)C(Cl)=C2N2CCOCC2)cc1 (stereo not drawn)
    2462	.	-4	1	.	.	.
- O=C1C2C3c4ccccc4C(c4ccccc43)C2C(=O)N1c1ccncc1 (stereo not drawn)
    4226	5.7	-20	2	1	3	2
- Cc1ccc(C)c(OCC(=O)Nc2cc(NC(=O)COc3cc(C)ccc3C)cc(C(=O)O)c2)c1
    3406	5.1	-22	-6	6	7	2
- CC(=O)Nc1ccc(S(=O)(=O)NCc2cccnc2)cc1
    7479	-2.1	-5	4	-1	-3	1
- COCC(=O)Nc1ccc(Br)cc1
    2281	0.7	-10	1	3	.	.
- CCCCCCCOC1(c2ccccc2)OC(=O)c2ccccc21 (stereo not drawn)
    15626	-4.7	-5	8	78	3	14
- O=C(CSc1nc2ccccc2s1)N/N=C/c1ccccc1C(=O)O
    5600	.	-22	-7	.	.	.
- CC(=O)Nc1cccc(NC(=O)c2c(-c3c(Cl)cccc3Cl)noc2C)c1
    11112	1.8	-8	-6	3	14	7
- O=C(O)CC(c1cccc2ccccc12)N1Cc2ccccc2C1=O (stereo not drawn)
    4024	9.1	20	6	0	-2	-6
- Cc1cc(C(=O)NN=C2CCCC(=O)C2)c(C)o1
    .	4.6	.	.	6	1	-9
- Cn1cnnc1SCC(=O)N1CCc2ccccc21
    2652	-0.5	-16	6	4	.	.

Later entries.
Every second line gives: Bead autofluor	RN4220 kill	PrP UTR inh	BJeLR viability	Sa ugtP lethal	Mtb hypoxia rep	Mtb hypoxia rep growth
- CC(=O)c1ccc(OC(C)C)c(CN2CCCCC2)c1
    7763	-1.8	6	6	-4	-16	0
- O=C(Nc1ccccc1N1CCCC1)c1cccc(Cl)c1Cl
    2537	13	-14	-7	5	2	3
- O=C(COC(=O)C1CCN(S(=O)(=O)c2cccs2)CC1)NCc1ccccc1
    2966	-1.3	-16	1	-8	-3	10
- COc1ccc(NC(=O)c2ccc3c(c2)NC(=O)CO3)cc1OC
    4565	7.3	-26	-4	2	-3	10
- Cc1ccc(C(=O)c2cc([N+](=O)[O-])ccc2N2CCCCC2)cc1
    2070	-11	56*	39	54	0	-10
- CN1CCN(C(=O)C(Cc2ccccc2)NS(=O)(=O)c2ccc3c(c2)CCC(=O)N3)CC1 (stereo not drawn)
    5583	1.4	10	.	10	.	.
- Cc1c(OCC(=O)N2CCC(C(N)=O)CC2)ccc2c3c(c(=O)oc12)CCC3
    5743	1.2	-11	4	-4	.	.
- Cn1c(CNC(=O)CCNC(=O)c2ccc(Br)cc2)cc(=O)n(C)c1=O
    4664	0.6	-2	5	1	4	1
- CCOc1cc(NS(=O)(=O)c2ccc(NC(C)=O)cc2)c(OCC)cc1NC(=O)c1cccs1
    2579	2.7	-5	-5	5	4	4
- COc1cc(OC)cc(-c2c(-c3cccs3)c3cc(Br)ccc3n2C)c1
    4175	-11	-25	.	-1	-3	1
- O=C(NC(=S)Nc1ccc(Cl)c(C(=O)O)c1)c1ccco1
    6585	4.4	-9	1	-2	12	1
- CCS(=O)(=O)N1CCC(NC(C)=O)(c2ccccc2)CC1
    4605	1.0	-38	-31	8	.	.
- Cc1ccc(C(CNS(=O)(=O)c2cc(F)ccc2F)N2CCN(C)CC2)cc1 (stereo not drawn)
    5517	0.4	-23	2	5	-4	0
- Cc1cc(C)n(CCNC(=O)C2CCC(=O)N(CCc3cccc(F)c3)C2)n1 (stereo not drawn)
    4123	1.0	-7	0	3	11	17
- Cc1cccc(NC(=S)NC(=O)C2CC2)c1
    5611	.	-36	2	.	.	.
- N#C/C(=C\c1ccccc1OCc1ccc(C(=O)O)cc1)c1ccccc1
    3598	15	-23	0	-18	-4	-4
- COc1ccc(/C=N/n2c(-c3n[nH]c4c3CCC4)n[nH]c2=S)cc1OC
    2495	.	-7	-5	.	.	.
- COc1ccc(Cc2nc3ccccc3[nH]2)cc1OC
    4192	-0.5	-19	-2	7	6	6
- O=S(=O)(c1ccc(Cl)cc1)N1CCN(C2CCCCCC2)CC1
    2364	2.8	-12	12	8	.	.
- COc1ccc(Cl)cc1NC(=O)CN(C)C1CCS(=O)(=O)C1 (stereo not drawn)
    2715	-4.4	-10	.	-7	-2	-4
- O=C(OC1CCOC1=O)c1ccc2ccccc2n1 (stereo not drawn)
    3007	5.5	-1	6	5	-4	-3
- CCOC1OC(C(=O)O)=CC(c2ccccc2)C1CCCO (stereo not drawn)
    .	4.2&8.3	.	.	1&-6	18&0	8&5
- CC12CCC(C(=O)N(CCCCN3CCN(Cc4ccccc4)CC3)C1=O)C2(C)C (stereo not drawn)
    6419	-4.8	.	1	-1	-1	2
- O=S(=O)(NCCN1CCOCC1)c1ccc2c(c1)OCCO2
    3720	4.9	-9	1	-2	12	4
- COC(C/C=C\[C@@H](O)[C@H](C)OCc1ccccc1)OC
    3953	.	-7	2	.	.	.
- CC(=O)Nc1ccc(N2CCN(c3ccc(F)cc3)CC2)cc1
    3011	0.3	-23	0	6	13	-2
- CC1C(=O)N2CCCc3cc(S(=O)(=O)N4CCC(C(N)=O)CC4)cc1c32 (stereo not drawn)
    4929	-0.7	-10	-4	-4	1	-4
- COc1cccc(OC(=O)CSc2nnc(-c3ccccc3Br)o2)c1
    4870	4.6	-25	9	-6	16	12

Ordered by count of non-hydrogen atoms (falling): part of the list above
Every second line gives: Bead autofluor	RN4220 kill	PrP UTR inh	BJeLR viability	Sa ugtP lethal	Mtb hypoxia rep	Mtb hypoxia rep growth
- COc1ccc(/C=N/n2c(-c3n[nH]c4c3CCC4)n[nH]c2=S)cc1OC
    2495	.	-7	-5	.	.	.
- COc1cccc(OC(=O)CSc2nnc(-c3ccccc3Br)o2)c1
    4870	4.6	-25	9	-6	16	12
- COc1ccc(Cl)cc1NC(=O)CN(C)C1CCS(=O)(=O)C1 (stereo not drawn)
    2715	-4.4	-10	.	-7	-2	-4
